Source: PubChem
T cruzi repl – T. cruzi replication inhibition; T. cruzi beta-gal in NIH3T3, luminescence, 90 h; inhibition, % (concentration not given with the values); actives 1.4% (n = 300,000); AID 1885;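 active = mean inhibition across valid replicates above about 55%, limit read from the data; inconclusive = mean below that limit but half or more replicates reach it; inactive = mean below it, under half of replicates reach it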;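 note: signal also drops with host cell toxicity which is not excluded here; 0% = plate median of DMSO wells and 100% = zero luminescence signal; higher percent means less beta-gal luminescence so fewer parasites; stock transfer was 50 nL into about 50 µL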
Beta cell apopt – blocks beta cell apoptosis; actives 0.8% (n = 300,000); protection from apoptosis, % (test concentration not listed); INS-1E cytokine-induced death, ATP luminescence, 48 h; percent of positive-control rescue, neutral wells zero;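 active = all replicates at 75% or more, or half of them and the mean; inconclusive = half reach 75% but not the mean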;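 note: 0% = cytokine-treated negative control wells and 100% = positive control rescue; higher means more ATP so stronger rescue from cytokine killing; wells of about 40 µL received 100 nL stock; the first replicate is given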
AF4-AF9 inh – MLL-AF4/AF9 protein interaction inhibition; inhibition, % at 10 µM; actives 0.47% (n = 350,000); AlphaScreen, biotin-AF4 peptide binding to FLAG-AF9; P42568;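 active = every replicate reaching a set inhibition limit, whatever the replicate mean, cut at about 25% in these data; inconclusive = mean inhibition reaches that limit but some replicates miss it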;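 note: 0% = plate neutral control median and 100% = total signal loss; the record names both 10 and 1 µM as test concentration; the first replicate is given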
LANA-H2A inh – blocks KSHV LANA binding to histone H2A/H2B. AID 2629. inhibition, % (test concentration not listed). cell-free LANA-H2A/H2B peptide, fluorescence polarization. Q9QR71. actives 0.6% (n = 320,000); in the data active = inhibition mostly above about 10%, no sharp cut-off; inactive = mostly below about 6.7%;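 note: stock transfer was 7.5 nL into about 10 µL; 0% = median of vehicle wells and 100% = median of positive control wells; one replicate is shown; the record names a cut of 25% in any replicate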
Target sequence (Q9QR71 whole entry, looked up): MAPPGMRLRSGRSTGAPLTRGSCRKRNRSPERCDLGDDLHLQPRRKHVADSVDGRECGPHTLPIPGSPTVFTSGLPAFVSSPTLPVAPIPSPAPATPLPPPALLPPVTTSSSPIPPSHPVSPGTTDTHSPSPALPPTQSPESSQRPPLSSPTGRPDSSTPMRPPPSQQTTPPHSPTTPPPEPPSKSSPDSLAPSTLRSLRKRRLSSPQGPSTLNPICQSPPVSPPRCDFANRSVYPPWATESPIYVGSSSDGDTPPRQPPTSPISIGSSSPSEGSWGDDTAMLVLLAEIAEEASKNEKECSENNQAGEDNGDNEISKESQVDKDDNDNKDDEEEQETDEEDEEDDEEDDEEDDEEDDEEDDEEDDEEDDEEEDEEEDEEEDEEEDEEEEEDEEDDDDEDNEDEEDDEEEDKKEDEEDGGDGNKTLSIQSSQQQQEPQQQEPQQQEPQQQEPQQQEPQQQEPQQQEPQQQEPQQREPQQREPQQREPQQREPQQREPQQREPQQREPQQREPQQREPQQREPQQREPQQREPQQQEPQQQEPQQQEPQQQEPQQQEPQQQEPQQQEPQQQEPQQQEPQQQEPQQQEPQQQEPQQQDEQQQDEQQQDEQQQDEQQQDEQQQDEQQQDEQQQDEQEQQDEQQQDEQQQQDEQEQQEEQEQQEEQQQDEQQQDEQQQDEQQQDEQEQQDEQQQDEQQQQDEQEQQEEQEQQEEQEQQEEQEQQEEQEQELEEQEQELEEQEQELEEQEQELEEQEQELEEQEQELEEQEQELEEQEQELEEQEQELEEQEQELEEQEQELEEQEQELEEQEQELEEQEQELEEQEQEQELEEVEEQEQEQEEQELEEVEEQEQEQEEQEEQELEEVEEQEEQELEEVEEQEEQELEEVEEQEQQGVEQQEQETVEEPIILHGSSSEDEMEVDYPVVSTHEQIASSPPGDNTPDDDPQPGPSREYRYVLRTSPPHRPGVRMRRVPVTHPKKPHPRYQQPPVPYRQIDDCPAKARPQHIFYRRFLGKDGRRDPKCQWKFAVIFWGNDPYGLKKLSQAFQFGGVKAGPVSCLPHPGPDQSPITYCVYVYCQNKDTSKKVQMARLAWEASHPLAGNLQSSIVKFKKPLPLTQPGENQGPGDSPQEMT
RanGTP-Imp inh – disruptors of Ran-importin-beta complex formation – biochemical, FRET, CFP-Ran, YFP-importin-beta, homogeneous, primary screen; cell-free CFP-Ran/YFP-importin-beta FRET ratio; inhibition, % (no concentration beside the values); actives 1.1% (n = 300,000); AID 2216;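 active = most replicates above 15%; inconclusive = exactly half above 15%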;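 note: 0% = DMSO wells and 100% = Ran loaded with GDP instead of GTP; wells of about 40 µL received 100 nL stock; the first replicate is given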
Vif A3G – HIV-1 Vif–A3G interaction blockers – biochemical, TR-FRET, GST-Vif 1-94, biotin-A3G peptide, dose response retest, primary screen (AID 1117319); TR-FRET GST-Vif / biotin-A3G peptide binding; higher % means a stronger effect; test concentration not given here; strong numbers were not always called active; inhibition, %; hits with a dose series show IC50 in µM; actives 0.57% (n = 260,000);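 active = above the screen mean plus three standard deviations and confirmed in dose response; inconclusive = results disagree or hit not tested in dose response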;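 note: Vif residues 1-94 fused to GST binding biotinylated APOBEC3G peptide 110-148; 0% = full assay without inhibitor and 100% = GST in place of GST-Vif; retest series ran down from 100 µM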
A1 inh – inhibitors of the anti-apoptotic protein A1, read as caspase activation; MEF A1-2A-BIM cells, Caspase-Glo 3/7 luminescence, 3 h; percent of clofoctol response, vehicle zero; caspase activation, % (concentration not given with the values); actives 0.066% (n = 330,000);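 active = over half of replicate activation scores above 10%, or exactly half above 10 with the replicate mean above 10; inconclusive = replicate mean below 10 yet half the replicates above 10; inactive = over half of replicates below 10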;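 note: wells of about 30 µL received 50 nL stock; many hits fall short of the cut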
Calb FLC – affects C. albicans growth with fluconazole | C. albicans CaCi-2 (fluconazole-resistant clinical isolate) + fluconazole, Alamar Blue growth, 48 h | growth inhibition, % (test concentration not listed) | actives 0.57% (n = 300,000) | AID 1979;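 active = most replicates above 75%; inconclusive = exactly half above 75%; inactive = most below 75%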;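 note: all wells also contain fluconazole at 8 µg/ml as a sub-toxic cotreatment; 0% = median of DMSO wells and 100% = median of geldanamycin control wells; wells of about 8 µL received 7.5 nL stock; the first replicate is given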
Starred values were filed as active, the others as inactive; u = inconclusive; x = no result given; & = joins results of further samples.

compound	Calb FLC	LANA-H2A inh	Beta cell apopt	A1 inh	T cruzi repl	RanGTP-Imp inh	Vif A3G	AF4-AF9 inh
CSc1ccc(NC(=O)NCCCN2CCN(c3ccccc3F)CC2)cc1	-7.8	1.8	-7.3	0.8	0.5	1.4	6.5%	x
C=CCC[C@H](Cc1ccc(F)cc1)C(=O)OC[C@H](C)NC(=O)[C@H](CC=C)CC(=O)N(CCO)Cc1ccccc1	x	-2.5	2.9	-1.1	x	x	x	4.6
Cn1c(SCC(=O)Nc2cccc(F)c2)nnc1-c1cc2ccccc2o1	-0.9	-1.3	-0.2	1.3	-0.9	-1.7	-4.3%	x
CC(C)(C)OC(=O)C[C@@H]1C/C=C\C[C@@H](CC(=O)NCCO)C(=O)NCCOC1=O	x	-4.5	0.9	0.1	x	x	x	4.1
Cc1ccc(OCc2nc(-c3ccccn3)no2)cc1	8.2	1.0	-0.5	-4.6	-2.8	-2.6	-0.5%	5.5
COC(=O)c1c(C(=O)OC)c(-c2ccc(OC)cc2)n2c1CS(=O)C2 (stereo not drawn)	25.8	-1.9	-3.1	-0.2	0.2	4.6	-5.5%	1.0
Cc1nc2ccccc2c(=O)n1/N=C/c1ccc(O)cc1	4.0	7.8	0.1	-1.1	-16.0	-1.1	31.6%	7.4
O=C(CSc1ccc([N+](=O)[O-])cc1)NNC(=O)c1ccccc1F	0.0	-2.8	-3.4	-0.1	-7.8	3.2	2.7%	-2.0
O=C(O)c1ccc(-c2ccccc2)[nH]1	13.0	-0.5	-0.1	-0.9	-17.3	6.3	8.1%	x
O=C(Nc1cccc(-c2cccc(F)c2)c1)C1CCN(CC2CCOC2)CC1 (stereo not drawn)	-0.3	1.1	-0.5	0.5	14.8	-0.3	x	4.2
Clc1ncnc2scc(-c3ccc(Br)cc3)c12	-2.0	-2.7	3.3	-0.2	-36.6	2.9	x	x
CC(=O)Oc1ccc2c(=O)c(/C=N/c3cc(=O)[nH]c(=S)[nH]3)coc2c1	-2.3	-6.1	0.8	1.1	5.1	-4.4	10.8%	0.5
CC(=O)c1c(-c2ccc(Cl)cc2)c2ccccc2[nH]c1=O	12.9	11.5	9.0	-0.2	-29.3	7.7	x	1.0
COc1ccc(CNC(=O)c2cc(COc3c(F)cccc3F)on2)cc1OC	-5.5	1.8	-18.0	-0.4	-6.9	7.2	-0.3%	-3.3
Cc1ccc(CNC(=O)CN(CCc2ccccc2)S(C)(=O)=O)cc1	18.8	-6.4	-1.6	0.4	-18.0	1.9	-8.9%	1.9
CCOC(=O)CSC(=S)NC(=O)c1ccc(OC)cc1	-2.8	-3.0	-10.5	-0.8	-18.0	-0.2	-3.6%	x
Cc1cc(NC(=O)COC(=O)C2CC(=O)N(c3ccccc3)C2)no1 (stereo not drawn)	5.4	-5.7	5.8	-0.9	-4.7	0.7	x	-10.3
CC(=O)Nc1ccc(N=c2cc([N+](=O)[O-])cc(Cl)n2O)cc1	4.3	0.0	7.8	1.4	34.1	0.9	1.5%	-0.8
NC(=O)C1CCN(c2ccc(C(F)(F)F)cc2[N+](=O)[O-])CC1	5.9	-1.7	-3.0	0.0	-7.6	5.4	-3.1%	x
CCOC(=O)c1c(NC(=O)C(C)S(=O)(=O)c2cn(CC)c3ccccc23)sc2c1CCCC2 (stereo not drawn)	1.9	-2.2	-2.0	0.0	25.0	-1.4	16.2%	-1.5
CC1CCC/C(=C\Nc2ccccc2C(=O)O)C1=O (stereo not drawn)	-0.8	6.2	-8.9	0.0	-8.1	2.8	5.7%	x
CC(C)(C)NC(=O)C(c1ccc(OCC(N)=O)cc1)N(C(=O)c1cccnc1)C1CC1 (stereo not drawn)	1.0	3.4	0.1	0.3	-1.3	-1.8	11.4%	x
Cc1cccc(NC(=O)c2cc[n+]([O-])cc2)c1C	-4.1	1.4	-3.4	-0.2	-4.9	4.5	x	-0.2
C/C(=N/OCC(=O)Nc1ccc(C)cc1C)c1cccs1	-40.6	3.4	x	-0.6	9.7	5.6	0.8%	x
COC(=O)Cc1ccc(N(Cc2ccccc2F)S(=O)(=O)c2ccc(C)cc2)cc1	18.6	-1.8	9.5	-0.1	34.0	3.1	x	-2.9
Cn1c(N)c(C(=O)COC(=O)/C=C/c2ccccc2F)c(=O)n(C)c1=O	x	1.2	-3.4	0.6	x	x	0.8%	-1.9
COc1ccccc1OCc1ccc(C(=O)OCC2CCCO2)o1 (stereo not drawn)	-3.1	-2.3	0.8	-0.6	-12.3	-0.6	4.2%	x
CN=Cc1sc2ccccc2c1O	-7.7	11.3	1.4	0.6	-4.9	13.4	-7.8%	5.0
COC(=O)[C@]1(C)CCC[C@@]2(C)C3CC[C@]4(OC(C)=O)C[C@@]3(CCC21)CC4=NO (stereo partly drawn)	x	-0.2	-2.7	0.7	x	x	x	2.0
CCOC(=O)c1ccc2nc(C(F)(F)F)[nH]c(=O)c2c1	-15.3	-2.9	-2.2	0.2	-8.4	-0.4	7.6%	x
COc1ccc(C(CC(=O)Nc2cc([N+](=O)[O-])ccc2OC)c2ccccc2)cc1 (stereo not drawn)	-8.9	-4.3	-2.9	0.5	25.8	3.2	x	1.6
CN1CC[C@@]2([C@@]34CCN(C)C3Nc3ccccc34)c3ccccc3NC12 (stereo partly drawn)	-6.3	-9.2	-0.7	-0.4	-14.1	1.4	x	1.9
CSc1snnc1-c1ccccc1	-6.8	3.1	-6.5	-0.5	-0.6	2.0	-3.6%	-2.1
COc1ccc(OC)c(S(=O)(=O)NCCC(C)C)c1	25.8	2.3	-5.6	0.2	-3.5	3.1	-3.2%	-1.7
COc1cc(CNCc2ccccc2)c(Br)cc1OC1CCCC1	-8.6	-3.6	8.6	0.5	28.4	-4.7	u	4.3
Cc1ccc(C)c(S(=O)(=O)N2CCN(c3nc(-c4cccnc4)nc4ccccc34)CC2)c1	x	0.0	3.4	0.4	x	x	x	3.2
CSc1nc(NC(C)(C)C)nc(Oc2ccc(=O)n(C)n2)n1	-8.3	-2.1	2.3	1.5	-6.9	-0.7	-0.6%	x
COC(=O)C(C)NC(=S)N1CCN(c2c(F)cc3c(=O)c(C(=O)O)cn(C4CC4)c3c2OC)CC1C (stereo not drawn)	-4.5	2.3	-3.7	-0.8	13.0	1.9	4.5%	-1.7
Cc1ccc(NC(=O)[C@@H]2CCCN2S(=O)(=O)c2ccccc2F)cc1S(=O)(=O)N1CCOCC1	5.0	1.0	2.3	0.2	-10.1	-6.6	2.1%	x
CCC(=O)Nc1ccc(C(=O)NNC(=O)COc2cc(C)ccc2C)cc1	0.6	-4.1	3.5	-0.5	-12.7	4.8	-0.1%	x
Cc1cc(Br)ccc1SCC(=O)OCC(=O)NC(C)c1ccccc1 (stereo not drawn)	-4.6	-3.6	-5.2	0.4	12.2	0.6	0.1%	-7.5
COc1ccc(-c2nnc3sc(COc4ccccc4)nn23)cc1	-26.3	-1.3	0.0	0.5	-12.7	-0.3	15.0%	x
CN1CCN(CC(=O)Nc2nc3c(s2)CCCC3)CC1	1.8	-2.2	-8.8	0.3	2.1	-2.3	u	1.5
CC(C)(C)NC(=O)C(c1ccncc1)N(C(=O)CNC(=O)c1ccco1)c1ccc(F)cc1 (stereo not drawn)	-13.1	3.4	4.4	0.6	5.3	-0.9	5.1%	-2.6
CC(=O)C1C(=O)C=C(c2cccs2)CC1c1ccccc1 (stereo not drawn)	0.9	-1.2	2.7	0.0	16.7	-3.0	23.4%	4.7
C/C(=N/NS(=O)(=O)c1cccc([N+](=O)[O-])c1)c1ccc2c(c1)OCO2	45.1	-3.1	-6.8	-0.3	-12.7	-7.6	x	-3.6
Cc1cccc(NC(=O)C(CCC(N)=O)NC(=O)OCc2ccccc2)c1 (stereo not drawn)	0.7	-5.5	-4.2	-0.3	-2.3	7.4	x	-1.4
Clc1ccc(CNc2ccccn2)cc1	-33.3	4.2	0.2	-0.9	-2.1	-3.7	-0.4%	-1.2
Cc1ccc(-n2nc(-c3ccco3)cc2C(=O)NCc2cccnc2)cc1	-3.9	2.2	2.7	-0.5	12.3	-0.9	9.9%	x
O=C(CSc1nnc(CNC(=O)c2c(F)cccc2F)o1)NCc1ccccc1	2.7	4.0	-6.7	0.7	-12.7	-16.9	x	-0.4
CCC(C)(C)n1nnnc1C(c1ccc(OC)c(OC)c1)N1CCN(c2cccc(OC)c2)CC1 (stereo not drawn)	-0.5	-6.8	-0.7	0.9	12.4	2.2	-3.9%&-4.4%	x
CCOC(=O)c1ccccc1NC(=O)Cn1c(=O)n(Cc2ccccc2)c(=O)c2c(C)c(C)sc21	16.1	6.9	-3.0	0.2	23.0	-3.7	-6.1%	x
CCCC(=O)Nc1nnc(Cc2ccccc2)s1	x	-0.1	-8.5	0.8	x	x	1.6%	x
O=C(c1ccccc1)c1n[nH]c(-c2ccccc2)cc1=O	-16.5	2.3	1.1	u	-10.7	-2.1	0.5%	1.1
Cc1nn(-c2ccccc2)c(C)c1C(=O)OCC(=O)N1CCN(S(=O)(=O)c2ccccc2)CC1	3.2	4.1	5.1	0.3	8.2	2.5	3.4%	x
COC(=O)CSc1ccc(C#N)c(SCC(=O)OC)c1	2.7	1.4	-3.6	-0.1	-14.0	1.4	2.2%	x
COc1ccc(NC(=O)CSc2nnc(Cc3cccn3C)n2CCc2ccccc2)c(OC)c1	3.2	-7.4	-4.1	0.6	1.4	7.5	-2.1%&3.1%	15.8
CC1=NOC2(C1)N(C)c1ccccc1C2(C)C (stereo not drawn)	u	2.2	-0.2	-0.1	2.8	1.8	0.9%	x
O=C(NCc1ccccn1)c1ccc(Cn2cc(Br)cn2)o1	-4.5	4.9	-4.2	0.3	-7.9	1.0	64.2%	x
COc1nc(N)nc(NC(=O)c2cccs2)c1N=O	7.1	-4.4	-9.9	1.9	-4.1	1.1	x	10.6
